Bioassay records as filed in PubChem BioAssay.
eIF4H inh: inhibitors of RNA binding by human eIF4H | Q15056 | eIF4H fluorescence polarization binding assay | inhibition, % at 35 µM | 290,000 compounds, 0.94% hits | AID 2012;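 active = 50% or more with normal probe brightness, or confirmed in later tests; inconclusive = above 50% with abnormal brightness, or retests that disagree; inactive = below 50% or failed in later tests; about a fifth of its hits are not listed in these tables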;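 also: calls also rest on retests at 20 µM and on dose response follow-up; 0% = protein and probe with vehicle and 100% = probe without protein; strong numbers were not always called active; many hits fall short of the cut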
Rce1 inhib: inhibitors of yeast Ras-converting enzyme; calls only; AID 2563; yeast membranes, quenched prenylated peptide cleavage fluorescence; Q03530; 290,000 compounds, 0.27% hits;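 active = fall in fluorescence gain of 50% or more versus controls, with final raw signal at or below 3038400; inconclusive = same 50% fall but final raw signal above 3038400; inactive = fall in fluorescence gain under 50%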;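 also: plate controls were neutral control wells for no effect and wells lacking membranes for full effect; tested at 10 µM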
Target sequence (Q03530 whole entry, looked up): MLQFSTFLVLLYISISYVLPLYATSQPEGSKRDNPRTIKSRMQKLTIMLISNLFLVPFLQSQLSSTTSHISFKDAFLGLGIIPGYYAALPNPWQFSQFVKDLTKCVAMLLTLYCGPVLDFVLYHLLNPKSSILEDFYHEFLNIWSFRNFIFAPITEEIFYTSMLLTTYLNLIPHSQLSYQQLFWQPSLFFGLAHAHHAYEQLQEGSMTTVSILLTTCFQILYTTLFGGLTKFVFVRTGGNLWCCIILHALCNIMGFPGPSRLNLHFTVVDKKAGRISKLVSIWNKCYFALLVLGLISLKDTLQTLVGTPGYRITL
CSC inhib: cancer stem cell inhibition; cancer stem cell-like cells viability, luminescence; inhibition, % at 7.5 µM; 300,000 compounds, 1.1% hits; AID 2717;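 active = mean at 75% or more and at least half the replicates too; inconclusive = mean and replicates disagree; tested in HMLE shEcad cells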;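 also: 0% = median of negative and 100% = median of positive control wells; the first replicate is given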
PABP FP inh: blocks human PABP binding to poly(A) RNA; P11940; fluorescence polarization; inhibition, % at 35 µM; 290,000 compounds, 1% hits;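 active = 50% or more with normal probe brightness, or confirmed in later tests; inconclusive = above 50% with abnormal brightness, or retests that disagree; inactive = below 50% or failed in later tests; about a fifth of its hits are not listed in these tables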;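 also: calls also rest on retests at 20 µM and on dose response follow-up; controls were probe without protein and protein plus probe with vehicle; some compounds called inactive have numbers as strong as hits; many hits fall short of the cut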
Target sequence (P11940 whole entry, looked up): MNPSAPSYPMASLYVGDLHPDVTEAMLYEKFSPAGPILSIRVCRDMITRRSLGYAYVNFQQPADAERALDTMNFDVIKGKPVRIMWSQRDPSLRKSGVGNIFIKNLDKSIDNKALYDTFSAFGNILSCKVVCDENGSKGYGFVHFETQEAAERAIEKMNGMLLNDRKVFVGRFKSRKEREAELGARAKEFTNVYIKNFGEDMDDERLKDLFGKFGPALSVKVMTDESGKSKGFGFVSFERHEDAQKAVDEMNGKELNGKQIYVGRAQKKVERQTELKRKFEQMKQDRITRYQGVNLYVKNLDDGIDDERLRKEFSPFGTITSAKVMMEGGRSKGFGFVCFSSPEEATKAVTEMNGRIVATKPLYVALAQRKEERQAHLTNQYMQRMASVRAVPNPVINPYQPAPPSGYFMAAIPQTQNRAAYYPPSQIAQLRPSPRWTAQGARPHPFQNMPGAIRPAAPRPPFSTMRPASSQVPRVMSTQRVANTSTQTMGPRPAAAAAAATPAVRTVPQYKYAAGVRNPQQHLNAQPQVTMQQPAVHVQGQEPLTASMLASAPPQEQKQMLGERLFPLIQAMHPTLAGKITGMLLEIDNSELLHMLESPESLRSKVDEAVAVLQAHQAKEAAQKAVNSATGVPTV
MT1-MMP act inh: blocks activation of human MT1-MMP | P50281 | HT1080 RFP-PRO-GFP cells, GFP/RFP ratio fluorescence, overnight; percent of plate control window, DMSO zero | GFP/RFP ratio change, % at 20 µM | 360,000 compounds, 0.061% hits | AID 651647;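 active = GFP/RFP ratio change of at least 30% with cell ATP level not reduced by more than half and red fluorescence within 50% of control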; also: strong numbers were not always called active
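Test system: HT1080 cells expressing an RFP-PRO-GFP fluorescent reporter construct / Compound dosing: single-point 20 µM compound, 1% DMSO / Schedule: cells overnight before dosing, compound overnight, 37 °C, 5% CO2 / Evaluation: GFP/RFP fluorescence ratio / Control set: DMSO and RFP-L50D-GFP cell wells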
Env fusion inh: inhibitors of HIV Env-mediated cell fusion. HeLa-JRFL Env/CEM21 cell fusion, luciferase. inhibition, % at 12.3 µM. 360,000 compounds, 1.1% hits;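 active = mean replicate inhibition score of at least 50 and every replicate individually at or above 50; inconclusive = only one of the two criteria met; inactive = mean below 50 and not all replicates reaching 50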;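 also: 0% = plate neutral controls and 100% = maraviroc near 300 nM; one replicate is shown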
UUG fidelity: yeast start codon fidelity modulation; S. cerevisiae UUG-firefly luciferase reporter, luminescence/redox ratio; activity score, % at 18.7 µM; 350,000 compounds, 0.13% hits; AID 602363;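 active = replicate mean at a twofold rise or more, about +100% in these data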;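 also: firefly luciferase made from a UUG start codon reports start codon fidelity; reporter light over untreated wells divided by growth signal over untreated wells; some hits fall short of that in this replicate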
eIF4H inh retest: second read-out of eIF4H inh, no call of its own (marks repeat the call); inhibition, %; compound at 20 µM; confirmation average;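 mean of two retest wells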
PABP FP inh retest: recorded beside PABP FP inh, whose call it bears; inhibition, %; compound at 20 µM; confirmation repeats;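 mean of two retest wells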
MT1-MMP act inh RFP: also measured in MT1-MMP act inh; calls as there; RFP signal change, %; measured here: RFP expression control read;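 0 = vehicle wells; hits needed this value within 50% of zero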
The depositor's hits bear a star; i = inactive; ? = inconclusive; . = not tested or not shown; + = active, no number. A portion of the library; count on the stated rates, not on these rows.

Sample of the layout, 2 compounds:
SMILES | eIF4H inh | Rce1 inhib | CSC inhib | PABP FP inh | MT1-MMP act inh | MT1-MMP act inh RFP | Env fusion inh | UUG fidelity | others
CN(CC(=O)Nc1ccc(Cl)c(Cl)c1)C(=O)c1ccccc1SCC(=O)N1CCCC1 | . | . | . | . | -8 | -11 | -4 | 7
C[C@H]1CN([C@@H](C)CO)C(=O)c2cccc(NS(=O)(=O)c3ccc(F)cc3)c2O[C@H]1CN(C)S(=O)(=O)c1cn(C)cn1 | . | . | . | . | -1 | 1 | 8 | -3

The listing, from the start:
SMILES | eIF4H inh | Rce1 inhib | CSC inhib | PABP FP inh | MT1-MMP act inh | MT1-MMP act inh RFP | Env fusion inh | UUG fidelity | others
CN(CC(=O)Nc1ccc(Cl)c(Cl)c1)C(=O)c1ccccc1SCC(=O)N1CCCC1 | . | . | . | . | -8 | -11 | -4 | 7
C[C@H]1CN([C@@H](C)CO)C(=O)c2cccc(NS(=O)(=O)c3ccc(F)cc3)c2O[C@H]1CN(C)S(=O)(=O)c1cn(C)cn1 | . | . | . | . | -1 | 1 | 8 | -3
Nc1cc(=O)[nH]c(SCC(=O)NNC(=O)c2ccccc2)n1 | . | i | . | . | 6 | 5 | . | -24
CCCCN1CNC(=S)N(c2ccccc2OCC)C1 | -1 | i | -16 | 1 | -1 | 2 | -57 | -19
COc1ccc(CNC(=O)CN(c2cccc([N+](=O)[O-])c2)S(C)(=O)=O)cc1 | 0 | i | -2 | 0 | -1 | 3 | 8 | 12
COc1cccc(N2C(N)=NC(N)=NC2(C)C)c1 | 4 | i | 1 | 6 | 1 | 2 | . | .
O=C(NCCc1c[nH]c2ccccc12)c1ccccc1 | 1 | i | -3 | 1 | 4 | 1 | -262 | -43
COC(=O)C1=C(C)NC(=O)C1(NC(=O)CN1CCCC1=O)C(F)(F)F (stereo not drawn) | 4 | . | -7 | -11 | -1 | -1 | . | -13
COc1cccc(CNC(=O)CSc2nnc3c(n2)[nH]c2ccc(OC)cc23)c1 | 1 | i | -1 | 8 | 2 | -6 | 0 | -17
O=C(Cn1c(NCCCO)nc2ccccc21)c1ccco1 | -7 | i | 2 | 8 | 0 | 1 | -4 | -4
Cc1ccc(-n2ncc3c2CC(C)(C)CC3NC(=O)CCc2ccc(=O)[nH]n2)cc1 (stereo not drawn) | -10 | i | 0 | -2 | 2 | 5 | 8 | -10
CCCNC(=O)N1CCCC(C(N)=O)C1 (stereo not drawn) | 1 | i | -2 | -8 | -2 | 1 | -19 | .
O=C(O)CNC(=O)c1ccccc1Br | -4 | i | -2 | 4 | 1 | 4 | ? | .
O=C(CN1C(=O)NC2(CCc3ccccc3C2)C1=O)NCC(F)(F)F (stereo not drawn) | -4 | i | -4 | 7 | 2 | 1 | 6 | -15
COCCn1c(-c2ccc(F)cc2)nc2cccnc21 | 3 | i | -4 | 5 | -2 | 1 | 8 | -14
CN(C)C(CNC(=O)c1cc(S(=O)(=O)N2CCOCC2)ccc1F)c1cccs1 (stereo not drawn) | . | . | -11 | . | 4 | 4 | -14 | -12
N#C/C(=C/c1ccccc1)C(=O)OCC(=O)Nc1ccccc1[N+](=O)[O-] | . | . | -6 | . | -4 | 2 | -4 | -17
COc1ccc(N(C(=O)COc2ccccc2OC)S(=O)(=O)c2ccc(C)cc2)cc1 | -4 | i | -3 | -4 | -2 | -2 | . | -3
CNC[C@H](NC[C@@H](NCCCc1ccccc1)c1ccccc1)[C@H](C)O | -4 | i | -1 | 0 | 1 | 8 | . | -5
O=C(CC(=O)c1ccccc1)Nc1ccc(Cl)cc1 | 3 | i | 6 | 0 | 13 | 1 | -16 | 6
COc1ccccc1N1CCN(C(=O)c2ccc(CSc3ccccc3)cc2)CC1 | 14 | i | 58 | 5 | 6 | 3 | -5 | -13
Cc1cccc(C)c1N1C(=O)CC(N2CCSCC2)C1=O (stereo not drawn) | -1 | i | -10 | 8 | -1 | -1 | -10 | .
CC(=O)N1CCN(C(=O)COc2ccccc2C(=O)Nc2ccccc2)CC1 | -1 | i | -10 | 6 | -6 | -5 | 3 | -9
COc1ccc(-n2c(C)cc(C)c(C(C)=O)c2=S)cc1 | 5 | i | 1 | -8 | 4 | 10 | -17 | -2
CCOC(=O)N1CCN(C(=O)CCCn2nc(C)c3sc4ccccc4c3c2=O)CC1 | -2 | i | -5 | 5 | 1 | -1 | . | 3
O=C(NC12CC3CC(CC(C3)C1)C2)c1ccc([N+](=O)[O-])o1 | -6 | i | 80* | 9 | 15 | -7 | -22 | -19
Cc1ccc(C(=O)OCC(=O)Nc2ccc(Cl)cn2)s1 | . | . | -17 | . | -5 | -1 | . | -14
CCOC(=O)c1cc(-c2ccccc2C)nn1CC1CC(c2ccc(OC)cc2)=NO1 (stereo not drawn) | . | . | 27 | . | 1 | -1 | 15 | -15
CC(C)N1C(=O)/C(=C\c2nc3ccccc3c(=O)[nH]2)c2ccccc21 | -16 | i | 23 | 0 | -10 | -11 | -13 | 1
CC(=O)N(CCCN(C)C)CCC(C)CCC=C(C)C (stereo not drawn) | 8 | i | 63 | 6 | -2 | -7 | . | 7
COCCNC(=O)C(=O)N/N=C/c1cccs1 | -2 | i | -6 | 1 | 2 | 5 | -3 | .
NC(=O)c1ccc(NC(=O)COC(=O)CCC2CCCCC2)cc1 | . | . | -4 | . | 11 | 1 | 7 | -8
Cc1cc2oc(C(=O)Nc3cccnc3)c(C)c2cc1C | -4 | i | 13 | 4 | 0 | 0 | -46 | -6
Cc1ccccc1NC(=S)NCc1ccc2[nH]c3c(c2c1)CCCC3 | 9 | i | 23 | 2 | 0 | -7 | -37 | -16
Cc1cc(C)c2c(=O)n(CC(=O)N3CCN(c4ccccc4)CC3)ccc2n1 | . | . | . | . | 7 | 7 | -1 | 3
CC(Sc1nc(-c2ccccc2)cc(C(F)(F)F)n1)C(=O)Nc1ccc2c(c1)OCO2 (stereo not drawn) | 5 | i | -3 | -4 | 0 | -2 | -3 | .
CCc1n[nH]c(=S)n1/N=C/c1cc(OC)cc([N+](=O)[O-])c1O | 60 | i | 11 | 12 | -1 | -2 | 19 | . | eIF4H inh retest=1;PABP FP inh retest=16
O=C(Nn1c(-c2ccccc2)nc2ccccc2c1=O)c1ccc([N+](=O)[O-])cc1 | -7 | i | . | -9 | 3 | 2 | 15 | -9
O=C(N/N=C/c1ccncc1)c1ccccn1 | -6 | i | 1 | 0 | 1 | 4 | -6 | -16
Cc1ccc(OC(=O)c2ccncc2)c(C)c1 | 1 | i | -10 | 0 | 8 | 1 | -15 | -11
Cc1cc(-c2nnc(SCC(=O)Nc3ccc(Cl)cn3)n2N)n[nH]1 | -3 | i | -2 | 12 | 0 | 4 | 4 | -12
O=C(NCCNC(=O)c1ccc(-c2cc(Cl)ccc2Cl)o1)c1cnccn1 | . | . | . | . | 3 | -2 | 41 | -4
COc1ccc(N2CC(C(=O)NCc3ccccc3)CC2=O)cc1 (stereo not drawn) | -1 | i | -8 | -6 | 0 | 3 | . | -25
Cc1noc(C)c1CN1C(=O)c2ccc([N+](=O)[O-])cc2C1=O | 13 | i | -1 | 17 | 0 | -1 | -9 | -16
COC(=O)C(C)(C)NC(=O)c1cccs1 | 6 | i | . | 11 | 10 | 4 | 36 | -10
Cn1ncc([N+](=O)[O-])c1C(=O)Nc1cc(Cl)ccc1Cl | . | . | . | . | 2 | 0 | -26 | -9
CCC(=O)NCCc1nc2cc(NC(=O)c3ccccc3Cl)ccc2n1C | 5 | i | 1 | 2 | 7 | 4 | -10 | -9
COc1ccc(C(=O)NNC(=O)Nc2ccc(Cl)cc2)cc1 | 3 | i | 1 | 0 | -6 | -8 | 25 | .
CCCNC(=O)N(C)c1nncnc1C(=O)NC | -5 | i | -7 | 3 | 3 | 6 | -30 | -21
CCSCc1nnc(SCC(=O)c2ccc(OC)cc2)n1C | -8 | i | . | -7 | 0 | 3 | . | -11
COc1cccc(NC(=O)NC(C)C2CC3CCC2C3)c1 (stereo not drawn) | 6 | . | -13 | -3 | 2 | 2 | 32 | .
Cc1cc(C)c(NS(=O)(=O)c2cccc3cccnc23)c(C)c1 | 1 | i | -4 | -6 | 0 | -4 | 13 | -3
O=C(COC(=O)Cc1ccc(S(=O)(=O)N2CCOCC2)s1)Nc1ccc(OC(F)F)cc1 | . | . | 11 | . | -3 | 0 | 2 | -16
CN1CCN(C(=S)Nc2cccc(S(=O)(=O)N(C)C)c2)CC1 | -2 | i | . | 11 | 2 | 2 | 23 | .
Cc1cc(Cl)c(Cl)cc1S(=O)(=O)NCCCn1ccnc1 | 6 | i | 4 | 0 | 3 | -1 | 8 | -22
O=C(CN1C(=O)NC(Cc2c[nH]c3ccccc23)C1=O)Nc1ccc(F)c(F)c1F (stereo not drawn) | . | . | . | . | 2 | -3 | 5 | -3
COc1cccc(N=Cc2c(O)n(-c3cccc(C)n3)c(=O)c3ccccc23)c1 | -12 | i | -16 | -3 | 6 | -3 | 9 | -11
COc1ccc([C@@H]2[C@@H]3C(=O)N(C(C)(C)C)C(=O)[C@@H]3[C@]3(C)C(=O)N(c4cccc(Cl)c4)C(=O)N23)cc1 | . | i | -16 | . | 0 | -1 | 61* | 2
Nc1c(-c2ccccc2)cnn1-c1cccc([N+](=O)[O-])c1 | -9 | i | -2 | -5 | 5 | 2 | -28 | 0
c1ccc2nc3c(nc2c1)OCC1CCCCN31 (stereo not drawn) | 12 | i | -11 | 6 | 0 | 0 | -23 | -18
Remaining list, next part
SMILES | eIF4H inh | Rce1 inhib | CSC inhib | PABP FP inh | MT1-MMP act inh | MT1-MMP act inh RFP | Env fusion inh | UUG fidelity | others
COc1cc(C2/C(=C(\O)c3ccc4c(c3)OCCO4)C(=O)C(=O)N2c2nnc(C)s2)cc(OC)c1OC (stereo not drawn) | -13 | i | 2 | 8 | 1 | 5 | 2 | -18
CCC(C)NC(=O)CSC1=Nc2ccccc2C2=NC(CC(=O)NCc3ccc(F)cc3)C(=O)N12 (stereo not drawn) | 1 | + | -7 | 14 | -2 | 0 | -25 | -2
C/C(=N\NC(=O)C(c1ccccc1)c1ccccc1)c1ccccn1 | 17 | i | 29 | 2 | -3 | -5 | 12 | .
Cc1ccc(-c2ccc(S(=O)(=O)NCc3ccco3)cc2)cc1 | -10 | i | -1 | -14 | 1 | 4 | 4 | .
Cc1ccccc1NC(=O)Cc1nc(COC(=O)/C=C/c2ccc(F)cc2)cs1 | . | . | . | . | -4 | 1 | -3 | -14
N#Cc1nc(N2CCCCC2)nc(N2CCOCC2)n1 | -3 | i | . | -7 | 1 | -16 | 38 | -13
Cc1ccc(N=C2NC(=O)/C(=C\c3cccs3)S2)cc1C | 3 | i | 50 | -1 | -6 | 0 | -27 | .
COC(=O)c1ccc(CN2C(=O)NC3(CCC(C)CC3)C2=O)cc1 (stereo not drawn) | 2 | i | -14 | -1 | 4 | 2 | -46 | -9
Cc1ccccc1N1CCN(C2CCCN(C(=O)CCC3(C)CC3)C2)CC1 (stereo not drawn) | 44 | . | 1 | 10 | 4 | -2 | -133 | 23
Cc1ccc(S(=O)(=O)N(Cc2ccccc2)C(C)C)cc1 | 1 | i | -8 | 4 | -1 | -4 | -3 | 3
